Source: PubChem BioAssay
PK Bst: alters activity of Bacillus stearothermophilus pyruvate kinase; 1.2% of 51,000 active; partly purified Bacillus stearothermophilus pyruvate kinase, luminescence ATP production; ribose 5-phosphate activator present at AC10; Potency, µM; in the data active means potency below about 11 µM; inconclusive means mostly about 12 µM to 25 µM; inactive means weaker than that;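 the screen sought inhibitors and activators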;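 also: potency is read from the fitted curve at half-maximal effect; scaled between full activation by ribose 5 phosphate and full inhibition by luteolin; about four in five hits inhibit and the cells do not say which; series up to 57 µM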
YjeE inh: inhibitors of E. coli YjeE (TsaE); P0AF67; purified YjeE, fluorescence polarisation of a bound ADP probe; Potency, µM; 0.05% of 71,000 active; AID 605; active = well fitted falling curve; inconclusive = weaker or top-dose-only fall, or a rising curve; inactive = flat or poorly fitted curve;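 also: top concentration of the series not given in the record; excess ADP was the control for the full effect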
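Purified YjeE (10 uM) with BODIPY Texas Red-labeled ADP probe (2 uM); compounds pin-transferred, 15 min at room temperature. Binding inhibition read as decreased fluorescence polarization; ADP titration as control.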
Starred values were filed as active, the others as inactive; i = inactive; ? = inconclusive; · = not tested or not shown. Some of the compounds tested, so the mix of outcomes need not match the whole.

canonical_smiles,YjeE inh,PK Bst
Cc1ccc(OC(=O)c2cccc(C(=O)Oc3ccc(C)cn3)n2)nc1,i,>57
COc1ccc(-n2c(COc3ccccc3)nnc2SCc2ccc(C#N)cc2)cc1,i,>57
O=S(=O)(c1cccs1)N1CN(CC2CCCO2)c2nc3ccccc3nc21 (centres undefined),i,>57
CCOCCn1cnc2sc(C(=O)Nc3nc(C)c(C(=O)OCC)s3)c(C)c2c1=O,i,>57
O=C(O)c1cc(-c2ccc(-c3ccccc3)cc2)nc2cc3ccccc3cc12,i,·
COc1cc2c(cc1OC)CN(C(=O)CSc1nnc3scc(-c4ccccc4)n13)CC2,i,·
O=C(Nc1cccc(C(F)(F)F)c1)c1cccnc1N1CCCC1,i,>57
Cc1ccccc1N1C(=O)N(c2cccc(C(F)(F)F)c2)C2CS(=O)(=O)CC21 (centres undefined),i,>57
Cc1oc(-c2ccccc2F)nc1CS(=O)(=O)CC(=O)N1CCOCC1,i,·
Cc1ccc(C=Nc2ccc(N(C)C)cc2)o1,i,·
COc1cccc(-c2nnc(NC(=O)c3ccc(S(=O)(=O)N4CCOCC4)cc3)o2)c1,i,>57
Nc1[nH]c(=S)[nH]c(=O)c1-c1ccccc1,i,>57
O=C(CCSc1ccccc1)NCCN1CCOCC1,i,>57
CCOc1ccc(N(CC(=O)NC(C)(C)C)S(=O)(=O)c2c(C)noc2C)cc1,i,·
COc1cccc(-c2cncnc2NCc2ccccc2OC)c1,i,·
CN(C)S(=O)(=O)c1cccc(C(=O)N(Cc2ccc(F)cc2)Cc2ccco2)c1,i,>57
NC(=O)COC(=O)c1ccc(Oc2ccccc2)cc1,i,>57
CC(=O)N(CC1CCCO1)c1nnc(-c2cnccn2)s1 (centres undefined),i,>57
COCCNC(=O)Cn1c(=O)n(Cc2ccc(C(=O)NCc3ccco3)cc2)c(=O)c2ccccc21,i,>57
NS(=O)(=O)c1ccc(CCNC(=O)CCCC2=NS(=O)(=O)c3ccccc3N2)cc1,i,>57
Cc1ccc(C)c(/C(O)=C2\C(=O)C(=O)N(Cc3cccnc3)C2c2cccnc2)c1 (centres undefined),i,>57
Cc1cc(NC(=O)c2ccc3c(c2)C(=O)N(CCC(C)C)C3=O)no1,i,>57
O=C(CSc1nc(-c2ccco2)cc(C(F)(F)F)n1)Nc1ccc(C(=O)N2CCCCC2)cc1,i,·
O=C(Nc1cccc(F)c1)N1CC2(CCN(C(=O)c3ccco3)CC2)C1,i,·
O=C(Nc1ccon1)C(Sc1ccccc1)c1ccccc1 (centres undefined),i,>57
CCCOc1ccc(Cc2nc(N)nc(N)n2)cc1,i,>57
ONC=Nc1cccc2nonc12,i,>57
COCCN(CCOC)c1nc(C)nc2c1nc(-c1ccccc1)n2CCN(C)C,i,·
COc1ccc(OCCCON2C(=O)c3ccccc3C2=O)cc1,i,>57
COc1ccc(CNC(=O)Nc2cccs2)cc1OC,i,>57
CCCCCCCC/C=C\CCCCCCCC(=O)N[C@@H](CO)Cc1ccc(O)cc1,i,·
COCCn1c(CN2CCN(c3ccccc3)CC2)nc2c1c(=O)n(C)c(=O)n2C,i,>57
COc1ccc(C(=O)C(OC(=O)CNC(=O)c2ccco2)c2ccccc2)cc1 (centres undefined),i,·
O[C@@](CCN1CCCCC1)(c1ccccc1)[C@@H]1C[C@H]2C=C[C@@H]1C2,i,·
COC(=O)CSc1nnc(-c2ccco2)n1-c1ccc(C)cc1,i,>57
Cc1cc(C)n2c3c(c(C#N)c2n1)CC(C)(C)OC3,·,>26
CCOC(=O)C(NC(C)=O)(Nc1ccc(S(=O)(=O)Nc2cc(C)nc(C)n2)cc1)C(F)(F)F (centres undefined),i,>57
NC(=O)c1nsc(C(=O)N(CC(=O)NCc2ccc3c(c2)OCO3)C2CCCCC2)c1N,i,>57
COc1ccc(NS(=O)(=O)c2ccc(OC)c(OC)c2)cc1OC,i,·
O=C(CSc1nc(-c2ccco2)cc(C(F)(F)F)n1)Nc1ccc2c(c1)OCO2,i,>57
Nc1ncnc2c1ncn2C1CCC(CO)C(O)C1 (centres undefined),i,>57
O=C(CN1CCN(c2ccccc2)CC1)Nc1nccs1,i,>57
O=C(NCc1ccc(Cl)cc1)c1cc2c(nc3sccn32)s1,i,>57
Oc1ccc(CNc2ccc(F)cc2)c2cccnc12,i,>57
Clc1ccccc1Nc1ncnc2c1nnn2Cc1ccccc1,i,>57
COc1ccc(Cl)cc1NC(=O)C1CC(=O)N(c2ccc(F)cc2)C1 (centres undefined),i,>57
Cc1oc2cc(O)cc(O)c2c(=O)c1-c1ccc2c(c1)OCCCO2,i,·
CCOC(=O)c1[nH]c(C)c(C(=O)Nc2ccc(C)c(C)c2)c1C,i,·
Cc1cc(C)c2c(CC(=O)NCc3ccco3)coc2c1,i,>57
COc1nc(N(C#N)CC(N)=O)nc(N2CCCC2)n1,i,>57
O=C(c1ccccc1)c1cncc(Br)c1,i,>57
Cc1cccc(CNc2nc(-c3ccc(C(=O)N(C)C)cc3)nc3ccccc23)c1,i,·
Cc1noc(C)c1C(=O)N1CCC2(CC1)CCN(c1cccc(-c3ccccc3)c1)CC2,i,·
O=C(Oc1ccc(-c2nnco2)cc1)N1CCOCC1,i,>57
CC(C)(C)NC(=O)CSc1nnnn1C(C)(C)C,i,>57
COc1ccc(Cl)cc1N1CCN(CCNC(=O)Nc2ccccc2C)CC1,i,>57
CCCCN(CCCNC(=O)C1CCCN(S(=O)(=O)CC)C1)Cc1ccccc1 (centres undefined),i,>57
CCCCCn1c(=O)c(C(=O)OCC)c(O)c2ccccc21,i,>57
Cc1oc(-c2cccc(Cl)c2)nc1CN1CCC(C(=O)N2CCN(c3ccccn3)CC2)CC1,i,·
Cc1cc(C)c2c(CN3CCN(CCO)CC3)cc(=O)oc2c1,i,>57

Carrying on:
canonical_smiles,YjeE inh,PK Bst
Cc1nc2sc3c(NCc4ccco4)ncnc3c2c2c1COC(C)(C)C2,·,>26
CC(=O)c1ccc(OCC(O)CN2CCCC(C)C2)cc1 (centres undefined),i,·
CCOCCCn1cnc2c(c1=O)c1nc3ccccc3nc1n2-c1ccccc1,i,>57
Nc1nnc(SCc2coc(-c3ccc(Cl)cc3)n2)s1,i,>57
CCOc1ccc(C(=O)NCc2cccs2)cc1,i,>57
Cc1nc2c(nnn2Cc2ccccc2)c(=O)n1-c1ccccc1,i,>57
CCOC(=O)c1cccc(NC(=O)CCc2c(C)nc3ncnn3c2C)c1,i,>57
CCOC(=O)C(C)NC(=O)C(NC(=O)C1CCC(CC)CC1)C(C)C (centres undefined),i,>57
COc1ccc(Cl)cc1N1CC(c2nc3ccccc3[nH]2)CC1=O (centres undefined),i,·
O=S(=O)(c1ccc(OCC(O)CN2CCC(Cc3ccccc3)CC2)cc1)N1CCOCC1 (centres undefined),i,>57
CC(C)OCCCNC(=O)c1ccncc1,i,>57
COc1ccc(Br)cc1C1CC(=O)N2CN(Cc3ccccc3)CSC2=C1C#N (centres undefined),i,·
O=C(CN1C(=O)c2ccccc2C1=O)N1CCN(c2nnc(-c3ccccc3)c3ccccc23)CC1,i,>57
O=C(c1ccco1)N1CCN(c2ncnc3c(-c4ccccc4)nsc23)CC1,i,·
C1CCC2OC2C1 (centres undefined),i,·
CCN(CC)c1ccc2cc(C(=O)Nc3ccc(-n4cnnn4)c(OC)c3)c(=O)oc2c1,i,>57
COC(=O)c1[nH]c2ccc(C)cc2c1NC(=O)C(C)N1CCN(C2CCCCC2)CC1 (centres undefined),i,>57
CC(=O)Nc1ccc(S(=O)(=O)N2CCCN(S(=O)(=O)c3ccc(NC(C)=O)cc3)CC2)cc1,i,>57
COc1cc(C(=O)NCCC(=O)NCCCN2CCCCC2C)cc(OC)c1OC (centres undefined),i,>57
O=C(NCCCN1CCN(Cc2ccccc2)CC1)c1nnc(Cc2c(F)cccc2Cl)o1,i,>57
COC(=O)C1=CNC=C(C(=O)OC)C1c1ccc(Cl)cc1,i,>57
CCOC(=O)c1ccc(N2C(=O)c3n[nH]c(C)c3C2c2ccc(OC)cc2OC)cc1 (centres undefined),i,>57
CCC(C)Cn1c(S(=O)(=O)O)nc2ccccc21 (centres undefined),i,>57
Cc1nc2nc(-c3ccco3)[nH]n2c(=O)c1Cc1ccccc1,i,>57
CCCCc1nnc(SCCSc2nnc(CCCC)n2N)n1N,i,>57
O=C(O)c1ccccc1Cl,i,·
Cn1c(=O)c2c(nc(NCCNC(=O)c3ccco3)n2Cc2ccc(Cl)cc2Cl)n(C)c1=O,i,>57
O=C(Cn1c(=O)n(Cc2ccco2)c(=O)c2ccccc21)NCC1CCCO1 (centres undefined),i,>57
O=C(Cn1cccc1)Nc1ccc(OC(F)(F)F)cc1,i,>57
O=C1CC(c2cccs2)Cc2nc(NCC3CCCO3)ncc21 (centres undefined),i,>57
CN(C)c1ccc(-c2cc(N(C)Cc3ccco3)ncn2)cc1,i,·
CCOC(=O)C1=C(C)N=c2s/c(=C\C(=O)OC)c(=O)n2C1c1ccc(OC)cc1 (centres undefined),i,·
CCc1cc2c(SCC(=O)O)ncnc2s1,i,>57
Cc1cccc(-n2c(CNC(=O)c3ccccc3)nnc2SCC(=O)Nc2nccs2)c1,i,·
CC(=O)Nc1ccc(S(=O)(=O)N2CCCN(S(=O)(=O)c3ccc(C)cc3)CC2)cc1,i,?
COc1ccc2[nH]c(=O)c(CN(C(=O)c3cccnc3)c3ccccc3OC)cc2c1,i,>57
CN(C)CCOC(=O)COc1ccc(Cl)cc1,i,·
CCc1cc(=O)oc2cc(C)cc(OC(C)C(=O)O)c12 (centres undefined),i,>57
COC(=O)Cn1c(CN2CCOCC2)nc2c1c(=O)n(C)c(=O)n2C,i,·
CCN1CCN(C2CCN(C(C)=O)CC2)CC1,i,·
O=C(NCC12CC3CC(C1)CC(CNC(=O)N1CCCC1)(C3)C2)N1CCCC1,i,>57
Cc1c(C#N)c2ccccc2n1CC(=O)NCC1CCCO1 (centres undefined),i,·
Cc1ccc2c(c1)N(C(=O)CSc1nncn1C)C(C)(C)c1ssc(=S)c1-2,i,>57
O=C1C(=O)N(CCCN2CCOCC2)C(c2cccs2)/C1=C(/O)c1ccc2c(c1)OCO2 (centres undefined),i,>57
O=S(=O)(CCSc1nc2ccccc2o1)c1nc2ccccc2s1,i,i

Given with two lines to a compound: 6 of the compounds above
Order of results – YjeE inh	PK Bst
Cc1nc2nc(-c3ccco3)[nH]n2c(=O)c1Cc1ccccc1
→ i	>57
C1CCC2OC2C1 (centres undefined)
→ i	·
CN(C)S(=O)(=O)c1cccc(C(=O)N(Cc2ccc(F)cc2)Cc2ccco2)c1
→ i	>57
O=C(NCC12CC3CC(C1)CC(CNC(=O)N1CCCC1)(C3)C2)N1CCCC1
→ i	>57
CCCCCn1c(=O)c(C(=O)OCC)c(O)c2ccccc21
→ i	>57
O=C(c1ccco1)N1CCN(c2ncnc3c(-c4ccccc4)nsc23)CC1
→ i	·

Later entries.
canonical_smiles,YjeE inh,PK Bst
COC(=O)c1ccccc1NC(=O)C1CC(=O)N(c2ccc(F)cc2)C1 (centres undefined),i,>57
Cc1ccc(C(=O)O)cc1S(=O)(=O)N1CCC(C(=O)O)CC1,i,>57
O=C(CSc1nnc(-c2cnccn2)n1Cc1ccco1)Nc1ccc(Br)cc1,i,>57
Cc1cccc(N2CCN(C(=O)C3CCN(S(=O)(=O)c4cccc5cccnc45)CC3)CC2C)c1 (centres undefined),i,·
CN(C)C(=O)c1ccc(-c2nccc(NCc3cccs3)n2)cc1,i,·
Cc1ccccc1NCc1ccccc1O,i,>57
CCOC(=O)CC(/C(C)=N\O)c1ccccc1 (centres undefined),i,>57
CCCC(=O)Nc1ccc(-c2nc3cc(C)ccc3o2)cc1,i,5.3*
Cc1cc(C)nc(-n2nc(C)c(C3(O)C(=O)Nc4ccc(F)cc43)c2N)n1 (centres undefined),i,>57
CC(NC(=O)C1CCN(c2nnc(-n3cccc3)s2)CC1)C12CC3CC(CC(C3)C1)C2 (centres undefined),i,8.2*
O=C(Nc1ccccc1Oc1ccccc1)C1CC1,i,·
Cc1nc(CC(=O)Nc2nc(C(C)(C)C)cs2)cs1,i,>11
O=C(Nc1cccc(NC(=O)c2ccc(Br)o2)n1)c1ccc(Br)o1,i,>57
O=C(Nc1ccc(Oc2ccccc2)cc1)c1ccco1,i,i
CCC1CCCCN1Cc1nc2c(c(=O)n(C)c(=O)n2C)n1CCC(C)C (centres undefined),i,·
Cc1cc(C(=O)NCCCN2CCCC2=O)no1,i,>57
CCCCOC(=O)c1ccc(NC(=O)C2CCCO2)cc1 (centres undefined),i,>57
O=C1CCC(=O)N1OCCCOc1ccc(Br)cc1Cl,i,>57
CC(=O)C1=C(O)C(=O)N(c2cc(C(C)(C)C)on2)C1c1ccc(Br)cc1 (centres undefined),i,>57
